# Screening results from PubChem.
# Sa RN4220 lethal – kills Staphylococcus aureus RN4220; S. aureus RN4220 growth, OD600, 16 h; inhibition, % (concentration not given with the values); 0.33% of 330,000 active;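 active = z-score of -3 or lower and OD600 up to 0.18 on both plates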;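 note: plate controls were untreated cells for no effect and reference antibiotic for full effect; stock transfer was 100 nL into about 80 µL; one replicate is shown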
# Autofluor counter – compound fluorescence in toxin protease inhibitor counterscreen; compound autofluorescence counterscreen, microsphere flow cytometry; active compounds read high; fluorescence intensity (concentration not given with the values); 3.1% of 360,000 active; AID 624483;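 active = at least 3 SD above the mean of all compounds, about 16000 in these data; inconclusive = too few beads counted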;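 note: 100 nL of 1 mM stock went into each well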
# ugtP null kill – kills S. aureus RN4220 lacking UgtP. AID 1259309. 0.54% of 330,000 active. growth inhibition, % (concentration not given with the values). S. aureus RN4220 ugtP deletion, OD600 growth, 16 h; some inactives read as strong as hits;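 active = z-score under -3 and OD600 up to 0.15 on both plates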;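 note: plate controls were untreated wells for no effect and antibiotic for full effect; wells of about 80 µL received 100 nL stock; the first replicate is given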
# PrP UTR inh – inhibition of PrP 5' UTR reporter expression. cell-based PrP 5' UTR mRNA reporter, plate reader. inhibition, % (concentration not given with the values). 0.35% of 340,000 active;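 active = every replicate at 50% or more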;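 note: 0 = median of the neutral control wells; tested in H4 reporter cells; numbers are from one replicate; inactives centre near -14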
# Mtb hypoxia inh – inhibitors of hypoxia-regulated fluorescent reporter in Mycobacterium tuberculosis. AID 1159583. fluorescence inhibition, % (test concentration not listed). M. tuberculosis hypoxia-regulated fluorescent reporter, fluorescence. 0.1% of 300,000 active;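 active = 35 to 45% if threefold the growth effect, above 45% if 1.5-fold the growth effect; inactive = the rest, general growth blockers included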;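 note: wells of about 50 µL received 100 nL stock; 0% = vehicle wells and 100% = reference inhibitor wells; whole bacteria with a GFP reporter of the hypoxia response; strong numbers were not always called active; many hits fall short of the cut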
# BJeLR viability – BJeLR cell viability loss. BJeLR (HRASV12) viability, CellTiter-Glo ATP luminescence, 48 h; reference of the scale not given here. inhibition, % (no concentration beside the values). 0.17% of 300,000 active. AID 1554;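 active = replicate mean above 50%; inconclusive = above 50% but judged a plate artefact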;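 note: 50 nL library stock added to about 25 µL; numbers are from one replicate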
# Mtb hypoxia inh growth – further read-out of Mtb hypoxia inh, marked with its call; growth inhibition, %; measured here: M. tuberculosis growth (absorbance);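 0% = vehicle and 100% = reference antibiotic; read after six days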
# Starred values were filed as active, the others as inactive; ? = inconclusive; . = not tested or not shown. Outcome played no part in choosing rows. About 4% of those tested had a hit in this group.
SMILES,Sa RN4220 lethal,Autofluor counter,ugtP null kill,PrP UTR inh,Mtb hypoxia inh,Mtb hypoxia inh growth,BJeLR viability
COCCN=C1N[C@@H](c2cccc(C(F)(F)F)c2)C(C(=O)OC)=C(C)N1Cc1ccccc1,.,4319,.,-19,.,.,6
O=C(Nc1ccc(F)cc1)C1CC(=O)n2cnnc2N1 (stereo not given),-4.8,4506,4,-18,10,1,-9
CCCC(c1nnnn1C(C)(C)CC)N(Cc1ccco1)Cc1cc2ccc(OC)cc2[nH]c1=O (stereo not given),11,2331,-2,-2,.,.,5
COCCNC(=O)CSc1n[nH]c(=O)n1CCc1ccccc1,3.1,3215,4,-12,0,-6,-5
Cc1cc(C(=O)NCc2cccs2)cs1,14,10787,-5,-35,.,.,-9
COc1ccc(C(=O)Nc2nnc(C(F)(F)F)s2)cc1,22,4510,15,-62,.,.,15
Cn1cc(CCC(=O)NCc2ccc3c(c2)OCO3)c2ccccc21,4.3,22473*,-6,-32,8,5,3
O=C(N/N=C/c1ccoc1)c1ccc(Cl)cc1Cl,.,5058,.,-13,.,.,-3
CCOC(=O)c1cn(CC)c2cc(N3CCSCC3)c(F)cc2c1=O,4.1,2826,15,-4,25,16,-4
Cc1ccc(-c2csc3ncnc(N4CCN(C(=O)c5ccccc5)CC4)c23)cc1,5.0,2809,-6,-18,12,8,-5
Cc1cc(C)nc(NN=Cc2ccco2)n1,7.1,.,3,.,2,5,.
CC(NCCN(C)C)C(=O)C12CC3CC(CC(C3)C1)C2 (stereo not given),4.4,6002,5,-7,12,3,-2
CCOc1ccccc1NC(=O)C(OC(=O)c1ccc(NC(=O)CC#N)cc1)c1ccccc1 (stereo not given),-7.3,6334,-7,-5,3,1,-2
OCCN(CCO)c1ncnc2c1sc1nc(N3CCOCC3)c3c(c12)CCCC3,4.5,4124,7,-4,1,3,1
O=S(=O)(CCN(CCS(=O)(=O)C(F)(F)F)CC1CCCO1)C(F)(F)F (stereo not given),38,12390,15,-6,14,3,4
CC(OC(=O)c1ccc(O)cc1)C(=O)Nc1nc(-c2ccccc2)cs1 (stereo not given),-8.8,3715,-8,-20,3,5,.
Cc1nc2scc(C)n2c(=O)c1S(=O)(=O)N1CCN(c2ccc([N+](=O)[O-])cc2)CC1,3.0,5216,5,-6,0,-4,0
CC1=NN(CCc2ccccn2)C(=O)CC1,1.4,6319,-2,-18,13,4,2
Fc1cc2ncn(Cc3ccccc3)c2cc1F,1.2,3262,-2,-11,7,12,0
COC(=O)c1ccc(C=NNC(=O)c2c(C)nc3ccc(Cl)cn23)cc1,2.2,.,3,.,4,-12,.
COC(=O)[C@H](Cc1c[nH]c2ccccc12)NC(=O)NCc1ccccc1,4.4,3065,1,2,3,-5,3
CN1CCc2nc3ccccc3c(C(=O)OCC(=O)N(CCC#N)c3ccccc3)c2C1,11,5075,2,-26,13,7,-3
O=C(COC(=O)c1cc(=O)c2ccccc2o1)Nc1cc(Cl)ccc1Cl,2.8,3966,3,1,1,7,.
N#Cc1cnc(SCC(=O)c2ccccc2)nc1N,1.0,10705,-19,-22,8,11,-7

# 5 entries from above, reformatted:
# Results follow in this order: Sa RN4220 lethal	Autofluor counter	ugtP null kill	PrP UTR inh	Mtb hypoxia inh	Mtb hypoxia inh growth	BJeLR viability
O=S(=O)(CCN(CCS(=O)(=O)C(F)(F)F)CC1CCCO1)C(F)(F)F (stereo not given)
→ 38	12390	15	-6	14	3	4
CC(OC(=O)c1ccc(O)cc1)C(=O)Nc1nc(-c2ccccc2)cs1 (stereo not given)
→ -8.8	3715	-8	-20	3	5	.
Cc1nc2scc(C)n2c(=O)c1S(=O)(=O)N1CCN(c2ccc([N+](=O)[O-])cc2)CC1
→ 3.0	5216	5	-6	0	-4	0
CC1=NN(CCc2ccccn2)C(=O)CC1
→ 1.4	6319	-2	-18	13	4	2
Fc1cc2ncn(Cc3ccccc3)c2cc1F
→ 1.2	3262	-2	-11	7	12	0

# Remaining list, next part.
SMILES,Sa RN4220 lethal,Autofluor counter,ugtP null kill,PrP UTR inh,Mtb hypoxia inh,Mtb hypoxia inh growth,BJeLR viability
COc1ccc(CNc2ncc(-c3ccc(Br)cc3)n2C)cc1OC,2.6,4277,-4,-23,.,.,-2
N#C/C(=C\c1cc([N+](=O)[O-])ccc1Cl)C(N)=O,6.2,4514,5,-20,2,-6,-2
C[C@H]1CCC(=O)N([C@H](CN=[N+]=[N-])Cc2ccccc2)CC1,.,2894,.,-16,.,.,10
COc1ccc(C2C=CCN(Cc3ccco3)CC(=O)N2Cc2ccc(F)cc2)cc1 (stereo not given),6.5,.,5,.,18,15,.
O=C(NCc1ccccc1)c1cccc(COc2ccc(Cl)cc2)c1,7.2,4077,7,-93,.,.,-7
COc1cc(C(=O)Nc2cc(Cl)ccc2-n2cncn2)ccc1OC(F)F,2.0,4516,-2,-18,-8,1,-2
CN1CCN(NC(=S)NC(C)(C)CC(C)(C)C)CC1,18,4180,0,-1,6,4,.
COCCN(Cc1cn(C)nc1-c1ccccc1F)C(C)C,3.8,4510,5,-1,-2,2,-1
Cc1ccccc1CSc1nnc(-c2cccs2)n1Cc1ccco1,12,4830,-7,-13,9,14,2
CCC(=O)N1CCN(c2ccccc2NC(=O)c2ccc(-c3cccc([N+](=O)[O-])c3)o2)CC1,5.6,2250,-2,-9,7,3,.
Cc1ccc2c(Cl)cc(Cl)c(OCC(=O)NC(=O)NCc3ccco3)c2n1,8.0,3777,-6,-30,16,12,-3
O=C(COC(=O)C1CCN(c2ccc(C(F)(F)F)cn2)CC1)NCc1cccc(Cl)c1,2.7,6186,1,-7,11,-1,.
Cn1cc([N+](=O)[O-])c(C(=O)N2CCN(Cc3ccc4c(c3)OCO4)CC2)n1,1.9,4383,8,-7,8,-11,6
COc1ccc(OC)c(NC(=O)CCCN2C(=S)NC(C)(C)CC2C)c1 (stereo not given),5.7,2539,3,-19,14,3,-8
COc1ccc(NC(=O)c2c(NC(=O)CNCc3ccco3)sc3c2CCC3)c(OC)c1,12,3042,-9,-3,-4,6,2
CCn1cc(C(c2ccccc2)C(C(C)=O)[N+](=O)[O-])c2ccccc21 (stereo not given),0.4,.,16,-16,1,-16,-1
COc1ccc(-c2csc(Nc3cccnc3)n2)cc1,2.3,2670,-8,-76,.,.,8
O=C(CCNS(=O)(=O)c1ccc(OC(F)(F)F)cc1)NC1CC1,0.7,2923,3,-7,7,4,.
O=C(NN=Cc1ccsc1)c1ccccn1,3.6,.,14,.,1,5,.
Fc1ccccc1NC(=S)N1CCOCC1,3.1,3630,2,-7,12,16,-2
O=C(CN(Cc1ccccc1)C(=O)CNS(=O)(=O)c1ccccc1)NCc1ccco1,1.4,5814,3,-32,5,8,-5
COc1ccccc1CN1CC2CC(c3ccc4nsnc4c3)N3CCC[C@@]23C1=O (stereo not given in full),4.8,.,-1,.,3,1,.
CN(c1ccc(C(=O)Nc2ccccc2C(F)(F)F)cc1)S(C)(=O)=O,-2.8,5315,13,-49,.,.,4
CCOC(=O)CN1C(=O)NC(c2ccccc2)C(C(=O)OC)C1C (stereo not given),4.5,.,-7,.,8,3,.
CC1(C)CC(=O)C2=C(C1)c1c(ccc3ccccc13)NC2c1ccco1 (stereo not given),-4.2,11570,-2,-8,3,7,-8
Cc1ccc(NC(=O)c2ccc(NCCN)c([N+](=O)[O-])c2)cc1,1.4,2001,-8,-25,.,.,1
COc1ccc(Cn2cccc(NC(=O)Nc3cccc(C#N)c3)c2=O)cc1,-3.2,3126,18,-11,5,5,-2
CCc1ccccc1Nc1nc(N)nc(COC(=O)CCS(=O)(=O)c2ccccc2)n1,0.1,?,8,-10,1,5,8
OCC1(Cc2ccccc2)CCN(Cc2ccccn2)CC1,1.8,4384,11,-31,6,6,.
Clc1cccc(-c2ccnc3nc(-n4cccc4)nn23)c1,3.8,10082,4,-32,0,0,4
CCOC(=O)c1ccc2c(c1)nc(-c1ccccn1)n2CC,1.1,3805,-2,-56,-7,11,-4
CC(=O)C1CCC2C3CCC4CC(O)CCC4(C)C3CCC12C (stereo not given),15,4387,2,-4,-5,1,-12
CS(=O)(=O)N1CCN(C/C=C/c2ccccc2)CC1,3.0,3708,6,-3,4,5,-5
COc1cccc(-n2c(SCC(=O)Nc3nccs3)nnc2-c2ccoc2C)c1,9.3,3386,5,-24,.,.,-2
CC[C@]12c3[nH]c4ccc(OC)cc4c3CCN1C(=O)C(CC(=O)NC/C=C(\C)CCC=C(C)C)C[C@@H]2C(=O)N1CCN(C(=O)c2ccco2)CC1 (stereo not given in full),-4.9,2936,-20,-15,-7,1,.
COc1ccc(CNC(=O)C(c2ccncc2)N(C(=O)Cc2cccs2)c2ccccc2C)cc1 (stereo not given),9.3,4104,-15,-31,0,4,0
COc1cccc(/C=N/NC(=O)CCc2c(C)n[nH]c2C)c1O,.,4258,.,-18,.,.,-10
CCCCc1nnc(SCC(=O)NC2CCCCC2)n1C,-1.2,5153,4,-2,-1,-4,-2
O=c1c2c(-c3ccccc3)csc2ncn1/N=C/c1ccc(O)c([N+](=O)[O-])c1,.,3534,.,-27,.,.,-11
CN(C)Cc1ccc(-c2nc3cccc4c3n2CCNC4=O)cc1,7.3,3954,0,-11,13,9,-6
COc1cc(/C=C2/NC(=O)NC2=O)ccc1OCC(=O)Nc1ccc(F)cc1,3.5,5414,-2,-24,0,2,8
CCOC(=O)c1ccc(NC(=NS(=O)(=O)c2ccccc2)c2ccccc2)cc1,7.1,.,-6,.,5,3,.
C=CCc1ccc(OCCOc2ccc(/C=N/n3cnnc3)cc2OCC)c(OC)c1,.,2127,.,4,.,.,6
COC(=O)c1ccc(-n2cnc(Cl)n2)c(F)c1,4.6,7987,2,-23,2,7,-1
CSCCOC(=O)C1=C(C)NC(=O)CC1c1ccccc1Cl (stereo not given),5.0,2681,-9,13,.,.,2
O=C(c1ccco1)N1N=C(c2cccs2)CC1c1ccc(F)cc1 (stereo not given),0.1,10300,0,-21,11,15,5
CC(=NNC(=O)CNc1cccc(C(F)(F)F)c1)c1cccs1,-2.8,.,-26,.,-7,-2,.
Cc1nc2cc3c(cc2s1)OCO3,6.2,6201,7,-13,12,-1,5
Cc1ccc(C)c(N2CCN(C(=O)c3ccc4nc(N5CCOCC5)sc4c3)CC2)c1,3.4,4332,10,-22,10,8,2
COC(=O)c1ccc(Cl)cc1NC(=O)C=Cc1ccc(C)o1,5.6,.,-3,.,6,0,.
CC1(C)CC(=O)c2c(nn(-c3ccccc3)c2N)C1,3.0,6606,9,-26,18,5,-17
COc1ccc(N(C(=O)/C=C/c2ccccc2)C2=CC3CCC(C2)N3C)cc1 (stereo not given),1.2,3556,6,-4,14,4,-4
Cc1ccc(Cn2ncc3c(NCCCN(C)C)ncnc32)cc1,1.3,3931,-4,-13,14,5,1
CC(=NCCCN1CCOCC1)c1c(O)n(Cc2ccccc2)c(=O)[nH]c1=O,3.4,4272,2,-14,5,6,-2
COc1ccc(N=Cc2nc(-c3ccccc3)oc2OC(C)=O)cc1,-1.8,?,-6,-22,-8,4,4
Cc1cc(=O)n2nc(N3CCC(C(=O)NCc4cccc(Cl)c4)CC3)sc2n1,2.5,4412,6,-7,-3,4,-18
CSc1cccc(NC(=S)N(CCCN2CCCC2)Cc2cccn2Cc2ccc(Cl)cc2)c1,-8.3,4977,-1,-17,-3,10,8
Oc1ccc(CNc2ccccc2)c2cccnc12,3.3,2893,-4,7,3,-2,-3
O=c1[nH]c(=O)n(Cc2ccc(F)cc2)c(O)c1C=NCCN1CCCCC1,5.9,6810,-9,-31,-7,2,-5
c1ccc2c(c1)N1CCN=C1N2CCN1CCCCC1,-1.6,4471,5,-28,.,.,-5
# (more compounds)
SMILES,Sa RN4220 lethal,Autofluor counter,ugtP null kill,PrP UTR inh,Mtb hypoxia inh,Mtb hypoxia inh growth,BJeLR viability
CCCOc1ccc2cc(C(=O)NCc3ccccc3)c(=O)oc2c1,3.5,3772,-14,-16,14,14,-7
CCCCC(=O)Nc1ccc2c(c1)nc(CCN1CCOCC1)n2C,1.7,8625,0,-12,10,10,0
Cc1ccc(S(=O)(=O)Oc2ccccc2C=NNc2ccc(C(=O)O)cc2)cc1,20,.,27,.,13,6,.
O=C(Nc1ccccn1)C1CCCN1S(=O)(=O)c1ccc(Cl)cc1 (stereo not given),1.0,5929,13,-8,11,-4,-8
